Resorufin fluor: compounds fluorescent in resorufin spectral region; Compound fluorescence, resorufin region 547/598 nm, buffer; stronger effect = higher value; max dye-equivalent concentration, M; 59,000 compounds, 0.04% hits; AID 588; active = above 10 nM dye equivalent; inconclusive = 1 to 10 nM; inactive = 1 nM or less; a few of its hits are not listed in these tables; further: highest value over a series up to 38 µM
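Dye-equivalent concentration values derive from comparing each well's 547/598 nm fluorescence against resorufin standards included on every plate. Incubation was 15 min at room temperature in 100 mM Tris, pH 8.0.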
A647 fluor: compound autofluorescence in A647 spectral region; Compound fluorescence, A647 channel (570/671 nm), Tris buffer; max dye-equivalent concentration, M; 59,000 tested, under 10 active; AID 592; active means above 1 µM dye equivalent; inconclusive means 0.1 to 1 µM; inactive means 0.1 µM or less;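 further: values scaled relative to a standard on each plate; highest value over a series up to 38 µM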
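Tris 100 mM pH 8.0; cpd + A647 stds pin-transferred; 15 min RT; CCD imager, ex 570/em 671. Output = A647-equivalent conc. per cpd conc.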
TSHR ag: agonists of human thyroid stimulating hormone receptor; P16473; HEK293-CNG-TSHR cells (CNG channel as cAMP sensor), membrane potential dye, cAMP; Potency, µM (highest dose often 57.1 µM), inactives show top-dose activation, actives largely listed as activators; 73,000 compounds, 0.48% hits; active = well fitted activation curve of enough size with the parental cells flat; inconclusive = any curve in the parental cells; inactive = parental cells flat and receptor cells flat or falling; further: potency means the concentration at half of the fitted maximal effect; % of control where 0% means no effect; weak receptor curves with flat parental cells got no call and are not listed
Target sequence (P16473 whole entry, looked up): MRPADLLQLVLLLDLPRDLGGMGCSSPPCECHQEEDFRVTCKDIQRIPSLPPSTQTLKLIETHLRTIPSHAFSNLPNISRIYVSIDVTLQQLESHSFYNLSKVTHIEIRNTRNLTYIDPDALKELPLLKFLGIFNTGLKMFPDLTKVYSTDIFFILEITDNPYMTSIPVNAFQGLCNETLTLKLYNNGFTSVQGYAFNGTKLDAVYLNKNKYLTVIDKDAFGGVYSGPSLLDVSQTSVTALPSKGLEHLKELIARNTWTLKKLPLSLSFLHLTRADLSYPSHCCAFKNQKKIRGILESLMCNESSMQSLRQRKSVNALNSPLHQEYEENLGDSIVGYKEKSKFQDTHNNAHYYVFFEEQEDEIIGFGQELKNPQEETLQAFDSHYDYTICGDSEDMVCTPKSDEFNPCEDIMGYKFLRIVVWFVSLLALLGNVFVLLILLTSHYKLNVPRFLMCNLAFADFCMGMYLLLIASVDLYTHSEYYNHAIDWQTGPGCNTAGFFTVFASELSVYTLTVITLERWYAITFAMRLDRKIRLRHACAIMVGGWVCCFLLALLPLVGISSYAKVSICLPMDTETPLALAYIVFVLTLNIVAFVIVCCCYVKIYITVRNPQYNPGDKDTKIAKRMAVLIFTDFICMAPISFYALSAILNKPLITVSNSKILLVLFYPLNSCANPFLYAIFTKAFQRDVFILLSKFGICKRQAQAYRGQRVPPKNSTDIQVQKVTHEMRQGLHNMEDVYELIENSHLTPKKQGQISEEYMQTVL
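HEK 293 cells stably expressing TSHR and a modified CNG channel, with CNG-only parental cells as counterscreen, were preloaded 60 min at room temperature with membrane potential dye containing 100 uM RO 20-1724. Compound exposure was 30 min, and depolarization was read as fluorescence at 590 nm.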
AID923: qHTS Assay for Allosteric/Competitive Inhibitors of Caspase-1: Spectroscopic Profiling in AFC Spectral Region. Potency, µM (top dose mostly 57.5 µM), without a hit: at the top dose fluorescence increase, usual class: activators. AID 923, 2007. compound fluorescence, AFC spectral region (405/520 nm); almost no hit is shown here. 75,000 compounds, 1.1% hits; active means well fitted activation curve with a large enough effect; inconclusive means small, poorly fitted or top-dose-only effect;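 further: potency means the concentration at half of the fitted maximal effect; 0% is about no effect; scaled to a free AFC standard on each plate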
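Compound autofluorescence profiled at 405 nm ex/520 nm em during kinetic caspase 1 run (50 nM enzyme, 5 uM Ac-WEHD-AFC, HEPES pH 7.5, 10 mM DTT). Titration up to 57 uM; baseline from regression intercept, normalized to AFC standard curve.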
A488 fluor: compound autofluorescence in A488 spectral region. AID 591. max dye equivalency, M. 59,000 compounds, 0.1% hits. compound autofluorescence, A488 spectral region, dye equivalency; stronger effect = higher value; active = above 10 nM dye equivalent; inconclusive = 1 to 10 nM; inactive = 1 nM or less; about half of its hits are not listed in these tables;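 further: highest value over a series up to 38 µM; compound alone in buffer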
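Compound autofluorescence was read in 100 mM Tris pH 8.0 after 15 min at room temperature, ex 480 nm/em 540 nm. Intensities were converted to A488 dye-equivalent concentration using an on-plate six-point A488 standard curve.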
The depositor's hits bear a star; i = inactive; ? = inconclusive; . = no result given; & = joins results of further samples; [ ] = dose if it differs, or a comment. A portion of the library; rates above refer to the full screens.

Values run as follows: Resorufin fluor, A647 fluor, TSHR ag, AID923, A488 fluor
> O=C(NCc1ccco1)c1c(O)c2cccc3c2n(c1=O)CCC3
 : i, 2.3e-08, ?, -0.7%, i
> CCCCc1cc(O)c(CCCC)c(O)c1
 : i, 2.5e-08, -20%, 0.6%, i
> O=C1CCCC=C1[C@@H](O)CCOCc1ccccc1
 : ., ., 3%[11.4 µM], -1.7%[11.5 µM], .
> N#Cc1cccc(NC(=O)N2CCCC3(CCN(C(=O)c4ccco4)CC3)C2)c1
 : i, 2.9e-08, 9%, -1.1%, i
> COc1ccccc1NC(=O)c1nnn(CC(=O)Nc2ccccc2)c1N
 : i, 2e-08, 8%, 0.5%, i
> CC(C)CN1CC[C@@]2(CCCN(C(=O)c3ccco3)C2)C1
 : i, 4e-09, 3%, 1.1%, i
> CC(=O)Nc1cccc(C(=O)N2CCN(Cc3ccccc3)CC2)c1
 : i, 1.5e-09, 0%, 0.4%, i
> COc1ccccc1-c1ccc2ncnc(NCc3cnc(C)cn3)c2c1
 : i, 1.8e-08, ?, 3.7%, i
> C#CCOC(=O)CCCC(=O)Nc1ccccc1OC
 : ., ., ?, -0.6%, .
> CC(=O)N1CCC[C@@]2(CCN(c3ncccn3)C2)C1
 : i, 1e-09, 9%, 2.8%, i
> O=C(Nc1ccc2c(c1)OCO2)N1CCN(c2ncccn2)CC1
 : i, 6.3e-09, ?, -0.3%, i
> C=CCNc1ncnc2c1cnn2-c1cccc(C)c1
 : ., ., -7%, -1.4%, .
> CCOC(=O)C1CCCN(Cc2cc(Br)c(OC)cc2OC)C1 (configuration not stated)
 : i, 2.4e-09, ?, 2.6%, i
> COCCCNC(=O)c1cc2c(-c3ccc(Cl)cc3)nn(C)c2s1
 : ., ., 8%, -0.7%, .
> CCOC(=O)CNC(=O)CSc1nnc(SCC(=O)NCC(=O)OCC)s1
 : ., ., -3%[11.4 µM], 0.4%, .
> CN1CCN(c2nc(-c3cccc(NS(C)(=O)=O)c3)nc3ccccc23)CC1
 : i, 9.9e-09, 8%, 0.3%, i
> COc1cccc(S(=O)(=O)Nc2ccc3sc(C)nc3c2)c1
 : i, 2.1e-08, 23%, 1.3%, i
> Cc1cc(C)n(-c2cc(N3CCOCC3)nc(-c3ccccc3)n2)n1
 : i, 2.1e-08, 7%, 0.7%, i
> CCNC(=O)c1c(O)c2cccc3c2n(c1=O)CC3
 : i, 1e-09, 3%, 0.4%, i
> O=C1c2ccccc2C(=O)N1CC1=CCS(=O)(=O)C1
 : i, 1e-09, -6%, -0.9%, i
> CC(C)NC(=O)CCCc1ccccc1
 : ., ., 4%, 0.6%, .
> CCN(CC)CCCNC(=O)c1cc(-c2ccc(O)cc2)on1
 : ., ., 2%, 3.5%, .
> CC[C@H](NC(C)C)[C@H](O)c1ccc(O)c(O)c1
 : i, 3e-08&6e-09, ?, 0.6%[25.7 µM], i
> CC(C)(C)c1nc2ccccc2c2nnc(SCC(=O)NCc3ccco3)n12
 : i, 1e-08, ?, -1.5%, i
> COc1ccc(CNc2ncnc3ccc(-c4ccc(C(=O)N(C)C)cc4)cc23)c(OC)c1
 : i, 1e-09, -1%, 2.3%, i
> Cc1cc2n(n1)C(c1sccc1C)Nc1c(C)cccc1-2 (configuration not stated)
 : i, 2e-09, ?, 0.0%, i
> O=C(C1CCCO1)N1CCC(c2nc3ccccc3[nH]2)CC1 (configuration not stated)
 : i, 3.5e-08, 9%, -0.8%, i
> O=C1CC(c2ccco2)CC(O)=C1C=NCC1NCCc2ccccc21 (configuration not stated)
 : i, 5e-09, 19%, 9.6%, i
> Cc1noc(C)c1-c1nccc(NCc2cccs2)n1
 : i, 6.9e-09, ., -1.6%, i
> Cc1c(C(=O)N2CCN(C)CC2)oc2c1C(=O)CC(C)(C)C2
 : i, 2.3e-08, -7%, 0.4%, i

Values run as follows: Resorufin fluor, A647 fluor, TSHR ag, AID923, A488 fluor
> Cc1nc2cncnc2n(Cc2ccccc2Cl)c1=O
 : i, 2.9e-08, 38%, 2.0%, i
> N#Cc1cccc(NC(=O)N2CCCC3(CCN(C(=O)c4cc(C(F)(F)F)cc(C(F)(F)F)c4)CC3)C2)c1
 : i, 1e-09, ., 4.0%, i
> O=C(Cn1nnc2ccccc2c1=O)Nc1ccc2c(c1)CCC2
 : i, 1.9e-08, -13%, -0.4%, i
> CCCC(C)(C)NC(=O)CCCCC(=O)NC(C)(C)CCC
 : i, 1e-09, -1%, 6.1%, i
> COC(=O)C1=C(C)n2cnnc2NC1c1ccc(Cl)cc1 (configuration not stated)
 : ., ., 3%, 0.4%, .
> O=CN1CCC(=O)N(Cc2ccccc2)c2ccccc21
 : i, 1e-09, -3%[11.4 µM], 1.5%, i
> COC(C1CCCCC1)C(C)C(OCc1cccc(Br)c1)C(C)CO (configuration not stated)
 : ., ., 5%[11.4 µM], -1.7%[11.5 µM], .
> O=C(c1ccc2c(=O)n(CC3CCCO3)c(=S)[nH]c2c1)N1CCN(c2ccccc2)CC1 (configuration not stated)
 : i, 1e-09, 14%, 1.0%, i
> COc1ccc(N2CC(C(=O)Nc3ccc(N4CCOCC4)cc3)CC2=O)cc1 (configuration not stated)
 : i, 3.6e-08, 1%, -0.5%, i
> COc1cc(OC)c(C(=O)Nc2ncn[nH]2)cc1OC
 : i, 5.2e-09, 1%, -0.6%, i
> COc1cccc(-n2nnc3c(=O)n(CC(=O)N4CCCCC4)cnc32)c1
 : i, 3.2e-09, 6%, -1.2%, i
> O=C(NCc1cccs1)c1cnc2sccn2c1=O
 : ., ., ?, -2.2%, .
> CCOC(=O)CSc1nnc(-c2ccc(Cl)cc2Cl)o1
 : i, 2e-08, ?, 0.5%, i
> Cc1cccc(NC(=O)CCN2CCN(C/C=C/c3ccccc3)CC2)c1
 : i, 1e-09, 19%, 2.9%, i
> CC(C)C(c1nnnn1Cc1ccc(F)cc1)N1CCSCC1 (configuration not stated)
 : i, 1.3e-08, ?, 0.5%, i
> COc1ccc(C(=O)NC(C)c2nnc(SCC(=O)Nc3nc4ccccc4s3)n2C)cc1 (configuration not stated)
 : i, 1.3e-08, -10%, -1.6%, i
> CCOC(=O)CNC(=O)CSc1nnc(Cn2cnc3ccccc32)n1C
 : i, 2.2e-08, 2%, 1.0%, i
> CCCn1c(SCc2cc(=O)oc3ccc4ccccc4c23)n[nH]c1=O
 : i, 5.7e-09, ?, 7.5%, i
> CCCCN1C(=O)c2ccc(C(=O)Nc3c(N)n(CCCC)c(=O)n(C)c3=O)cc2C1=O
 : i, 5.8e-08, 12%, -1.2%, i
> O=C(CCc1nc(-c2ccccc2F)no1)NC1CCCCCC1
 : i, 1.2e-08, 19%, -0.5%, i
> COc1cccc(/C=N/n2c(C)c3c(C)nnc(C)c3c2C)c1O
 : i, 2e-09, ., -1.5%, i
> COc1cc(OC)cc(C(=O)OCn2nnc3ccccc3c2=O)c1
 : ., ., ?, -0.9%, .
> CCS(=O)(=O)NCCc1cc2c(OC)ccc(OC)c2[nH]c1=O
 : i, 5.9e-09, -5%, 1.0%, i
> O=C(CCCn1c(SCC(=O)c2ccc(O)c(O)c2)nc2ccccc2c1=O)NCC1CCCO1 (configuration not stated)
 : i, 1e-09, -8%, -1.5%, i
> Cc1nc(NC(=O)c2cccnc2)ccc1Br
 : i, 1e-09, -7%, -0.2%, i
> CC(=O)c1ccc(-n2nncc2C)cc1
 : i, 1.9e-08, ?, 0.8%, i
> CCOC(=O)C1=C(C)NC(C)=C(C(=O)OCC)C1C(=O)OCC(=O)c1ccc2c(c1)OCCO2
 : i, 1e-09, -4%, 6.7%, i
> Cn1c(=O)cc(OCC(=O)N2CCN(c3cccc(C(F)(F)F)c3)CC2)c2ccccc21
 : i, 1e-09, 21%[11.4 µM], 0.1%, i
> Cc1csc2nc(CCNS(=O)(=O)c3ccc4c(c3)OCCO4)cn12
 : ., ., ?, -3.2%, .
> O=C(NCCn1ccc2ccccc21)c1ccc2c(c1)OCO2
 : ., ., -7%, 4.7%, .

Values run as follows: Resorufin fluor, A647 fluor, TSHR ag, AID923, A488 fluor
> Cn1c(=O)[nH]c(=O)c2c1nc(NCCCO)n2Cc1ccc(F)cc1
 : i, 3.1e-09, ., -1.5%, i
> Cc1ccc(-c2nn(C)c(=O)c3ccccc23)cc1CO
 : i, 1.1e-08, -19%, -0.4%, i
> Cc1cccc(OCC(=O)N(Cc2cccs2)C2CCS(=O)(=O)C2)c1C (configuration not stated)
 : i, 1e-09, ?, -0.9%, i
> CSc1cccc(NS(=O)(=O)c2ccccc2)c1
 : ., ., 7%, -1.3%, .
> CCOC(=O)c1ccc(NC(=O)COc2ccc(S(=O)(=O)NC(C)C)cc2)cc1
 : i, 5.5e-09, -5%, -0.8%, i
> CC(=O)c1c(C)nc2ccccc2c1N
 : i, 2e-09, 1%, -0.6%, i
> O=C(Cn1cccc1C(=O)c1ccccc1)NCCN1CCOCC1
 : i, 2.2e-08, -1%[11.4 µM], 0.9%, i
> CCC1CCCCN1C(=O)CSc1nc2c([nH]c3ccccc32)c(=O)n1C (configuration not stated)
 : i, 1e-09, ?, -0.9%, i
> CCn1c(SCC(=O)Nc2nc3c(s2)CCCC3)nnc1-c1ccccc1
 : i, 1e-09, ?, 0.4%, i
> Cc1ccc2nnc(Cl)n2n1
 : i, 1.3e-08, 14%, 0.1%, i
> COC(=O)[C@H](CCSC)NC(=O)Nc1ccc(OC)c(Cl)c1
 : i, 2.9e-08, -3%, 0.1%, i
> Cc1cc(NC(=O)CCC(=O)N(c2cccnc2)C(C(=O)NC2CCCC2)c2ccccc2F)no1 (configuration not stated)
 : i, 1e-09, -51%[inhibitor], -4.2%, i
> O=C(Nc1ccncc1)C1CCCN(S(=O)(=O)c2cccc3cccnc23)C1 (configuration not stated)
 : ., ., 6%, -0.3%, .
> O=C(OCC(=O)N1CCN(C(=O)c2ccco2)CC1)c1ccccc1OCc1ccccc1
 : i, 4.7e-09, 0%, -1.8%, i

A run of entries from further up, as a working copy:
Values run as follows: Resorufin fluor, A647 fluor, TSHR ag, AID923, A488 fluor
> Cn1c(=O)[nH]c(=O)c2c1nc(NCCCO)n2Cc1ccc(F)cc1
 : i, 3.1e-09, ., -1.5%, i
> Cc1ccc(-c2nn(C)c(=O)c3ccccc23)cc1CO
 : i, 1.1e-08, -19%, -0.4%, i
> Cc1cccc(OCC(=O)N(Cc2cccs2)C2CCS(=O)(=O)C2)c1C (configuration not stated)
 : i, 1e-09, ?, -0.9%, i
> CSc1cccc(NS(=O)(=O)c2ccccc2)c1
 : ., ., 7%, -1.3%, .
> CCOC(=O)c1ccc(NC(=O)COc2ccc(S(=O)(=O)NC(C)C)cc2)cc1
 : i, 5.5e-09, -5%, -0.8%, i
> CC(=O)c1c(C)nc2ccccc2c1N
 : i, 2e-09, 1%, -0.6%, i
> O=C(Cn1cccc1C(=O)c1ccccc1)NCCN1CCOCC1
 : i, 2.2e-08, -1%[11.4 µM], 0.9%, i
> CCC1CCCCN1C(=O)CSc1nc2c([nH]c3ccccc32)c(=O)n1C (configuration not stated)
 : i, 1e-09, ?, -0.9%, i
> CCn1c(SCC(=O)Nc2nc3c(s2)CCCC3)nnc1-c1ccccc1
 : i, 1e-09, ?, 0.4%, i
> Cc1ccc2nnc(Cl)n2n1
 : i, 1.3e-08, 14%, 0.1%, i
> COC(=O)[C@H](CCSC)NC(=O)Nc1ccc(OC)c(Cl)c1
 : i, 2.9e-08, -3%, 0.1%, i
